From PubChem BioAssay
ALR inh = human ALR oxidase inhibition via reduced H2O2; purified ALR, DTT oxidation, H2O2 HRP-luminol luminescence; inhibition, % (concentration not given with the values); hit rate 3.8% among 290,000;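 active means mean and each replicate at 75% or more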;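 further: stock transfer was 7.5 nL into about 7.5 µL; 0% = neutral wells and 100% = wells with inactivated enzyme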
Target sequence (P55789 whole entry, looked up): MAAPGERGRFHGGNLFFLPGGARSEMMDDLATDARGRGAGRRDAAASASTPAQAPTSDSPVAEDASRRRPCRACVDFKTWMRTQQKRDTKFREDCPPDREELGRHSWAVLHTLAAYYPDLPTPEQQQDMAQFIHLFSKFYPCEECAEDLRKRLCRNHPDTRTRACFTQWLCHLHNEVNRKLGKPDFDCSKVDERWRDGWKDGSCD
B2AR ag = agonists of human beta-2 adrenergic receptor inducing internalization; P07550; Am2.2-beta2AR cells, FAP receptor internalization, flow cytometry; reference of the scale not given here; response, % (concentration not given with the values); hit rate 0.43% among 340,000; AID 504454;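 active means response above a set limit, near 3 SD of response in nonfluorescent compounds, cut at about 42% in these data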;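 further: stock transfer was 100 nL into about 11 µL; a reference agonist was the positive control; negative values mostly stem from fluorescent compounds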
UCH37 DUB inh = human UCH37 deubiquitinating enzyme inhibition; inhibition, % (concentration not given with the values); hit rate 0.33% among 330,000; AID 588478; Q9Y5K5; purified proteasome/UCH37, Ub-AMC cleavage fluorescence;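 active means mean of two replicates above 20%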;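 further: 0% = compound-free wells with enzyme and 100% = wells lacking proteasome; stock transfer was 100 nL into about 20 µL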
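Material: Human UCH37 enzyme supplied as purified proteasome complex | Schedule: 30 min preincubation with enzyme, 25 min cleavage at room temperature | Detection: AMC fluorescence 355/460 nm | Measure: % inhibition of Ub-AMC cleavage fluorescence | Controls: Wells without proteasome as full block, compound-free enzyme plus substrate as uninhibited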
E coli growth = blocks Escherichia coli growth; OD600 absorbance (no concentration beside the values); hit rate 0.21% among 330,000; OD600, 23 h; hits give low values;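 active means OD600 absorbance below the run mean of sample wells minus 3.6 SD, in any replicate, cut at about 0.56 in these data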;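 further: stock transfer was 300 nL into about 60 µL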
FGF22 binding = shifts melting point of recombinant human FGF22. Q9HCT0. AID 651658. hit rate 1.5% among 340,000. calls only at 9.99 µM. recombinant FGF22 thermal shift, SYPRO orange fluorescence; percent of sucrose octasulfate shift, DMSO zero;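 active means melting point raised past a set limit in the mean and every replicate; three in four hits are not shown here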
Target sequence (Q9HCT0 whole entry, looked up): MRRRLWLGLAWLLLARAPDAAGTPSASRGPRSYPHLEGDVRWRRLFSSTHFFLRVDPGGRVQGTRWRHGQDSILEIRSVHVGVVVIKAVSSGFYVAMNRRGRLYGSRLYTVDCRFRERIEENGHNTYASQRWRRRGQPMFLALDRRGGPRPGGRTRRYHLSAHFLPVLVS
HNF4A DNA FP = change in binding of human HNF4 alpha to DNA | P41235 | HNF4a-FITC DNA binding, fluorescence polarization, 1 h | activity change, % at 10 µM | hit rate 0.3% among 360,000 | AID 1224865; in the data active means activity change above about 30%, passing the limit was not always enough;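 further: controls were the assay level and a saturating level of protein; the project sought stronger binding though the title names inhibitors; some compounds called inactive have numbers as strong as hits; positive values seem to mean higher polarization but the record does not say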
Target sequence (P41235 whole entry, looked up): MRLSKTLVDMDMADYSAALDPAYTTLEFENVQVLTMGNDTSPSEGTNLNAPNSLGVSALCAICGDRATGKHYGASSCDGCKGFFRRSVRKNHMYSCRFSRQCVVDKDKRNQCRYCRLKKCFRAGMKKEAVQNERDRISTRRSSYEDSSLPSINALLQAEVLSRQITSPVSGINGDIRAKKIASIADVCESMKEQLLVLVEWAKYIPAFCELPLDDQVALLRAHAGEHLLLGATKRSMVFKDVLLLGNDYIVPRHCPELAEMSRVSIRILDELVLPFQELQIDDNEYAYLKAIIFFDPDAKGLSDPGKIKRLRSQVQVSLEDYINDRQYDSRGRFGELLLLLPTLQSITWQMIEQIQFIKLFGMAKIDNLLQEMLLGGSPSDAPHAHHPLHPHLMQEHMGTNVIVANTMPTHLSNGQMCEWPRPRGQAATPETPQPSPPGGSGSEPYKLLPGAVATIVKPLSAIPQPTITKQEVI
LANA-H2A inh = blocks KSHV LANA binding to histone H2A/H2B; hit rate 0.6% among 320,000; cell-free LANA-H2A/H2B peptide, fluorescence polarization; Q9QR71; inhibition, % (test concentration not listed); in the data active means inhibition mostly above about 10%, no sharp cut-off; inactive means mostly below about 6.7%;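 further: stock transfer was 7.5 nL into about 10 µL; 0% = median of vehicle wells and 100% = median of positive control wells; one replicate is shown; the record names a cut of 25% in any replicate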
* hit, by the source's call; i = inactive; / = not tested or not shown. Only part of the results is shown; count on the stated rates, not on these rows.

Sequence of screens: HNF4A DNA FP	ALR inh	E coli growth	FGF22 binding	UCH37 DUB inh	LANA-H2A inh	B2AR ag
O=C(CSc1nnc(NC(=O)c2c(F)cccc2F)s1)NCC1CCCO1 (stereo unspecified)
  -1.4	3	0.72	i	-0.8	1.2	-3
Cc1cc(/C=C(\C#N)C(=O)NCc2ccccc2)cc(C)c1O
  0.3	-2	0.71	i	-0.1	-1.1	-119
COc1ccccc1OCC(=O)NNC(=O)CCCC(=O)NNC(=O)COc1ccccc1OC
  -0.4	1	0.67	i	1.8	0.6	-7
O=C(Nc1cccc2ccccc12)c1ccc(OC(=S)N2CCOCC2)cc1
  -3.1	-9	0.71	/	3.2	13	5
NN/C(=C\[N+](=O)[O-])Nc1ccccc1
  -1.2	64	0.71	i	0.1	2.6	-11
C=CC[N+]1(CC#Cc2ccccc2)CCCC1
  1.5	0	0.67	i	-1.3	-0.3	0
COC(=O)C(Cc1ccccc1)NC(=O)CNC(=O)c1ccc(Br)o1 (stereo unspecified)
  4.2	/	0.67	i	-1.3	-9.5	6
O=C(O)CCc1nc2cc(Cl)ccc2n(Cc2ccccc2)c1=O
  3.2	-25	0.7	i	-31	-4.3	8
Cc1cccc(NC(=O)NCc2cccnc2)c1C
  3.6	-6	0.67	i	0.0	0.7	9
COc1ccc(NC(=S)N2CCC(c3nc4ccccc4[nH]3)CC2)c(OC)c1
  3.1	-37	0.7	/	2.5	-1.1	-5
CCc1nc2ccccc2c(C(=O)O)c1C
  -2.8	-1	0.66	/	2.9	2.0	-1
CCN(CC)c1ccc(C(=O)NNC(=O)CNC(=O)c2cccs2)cc1
  -1.7	23	0.65	i	6.6	2.5	1
CC1CCCCN1C/C=C/c1ccccc1[N+](=O)[O-] (stereo unspecified)
  5.0	-6	0.67	/	6.1	5.0	5
CC(C)CN1CCNC(=O)C1CC(=O)NCCc1cnn(-c2ccccc2)c1 (stereo unspecified)
  -0.2	1	0.7	i	-11	1.9	5
O=C(NCC(=O)N(c1ccc2c(c1)OCO2)C(C(=O)NC1CCCC1)c1ccncc1)c1ccco1 (stereo unspecified)
  2.9	-98	0.75	/	0.8	-6.5	-5
CCCC(=O)N(Cc1cc(=O)[nH]c2ccccc12)c1ccc(C)cc1
  2.9	4	0.67	i	0.2	-0.7	-3
COc1ccc(-c2nc(NC(=O)c3[nH]c(C)c(C(C)=O)c3C)sc2C)cc1
  -2.4	45	0.71	i	-2.4	3.7	6
COc1ccc(CNC(=O)c2ccc3c(=O)n(CCCN4CCCC4=O)c(=S)[nH]c3c2)cc1
  2.1	/	0.69	i	1.6	2.6	6
O=c1[nH]c2ccc([N+](=O)[O-])cc2nc1/C=C(\O)c1ccccc1
  -1.0	5	/	i	/	6.4	-5
CCCCCC(=O)NNC(=O)c1ccc(-c2ccccc2)cc1
  -1.3	0	0.69	i	0.4	-3.0	8
Cc1ccccc1NC(=O)c1ccccc1NC(=O)c1ccco1
  1.3	-2	0.71	/	3.0	-1.1	5
CCOC(=O)c1c(C)[nH]c(C)c1C(=O)COc1ncnc2ccccc12
  -2.9	5	0.68	i	4.8	5.2	1
CCCN(C(=O)Cn1c(C(F)(F)F)nc2ccccc21)C1CCS(=O)(=O)C1 (stereo unspecified)
  1.5	-11	0.68	i	3.3	4.9	9
O=C(CSc1nncs1)NC1CCCCCCC1
  0.2	/	0.65	i	3.1	0.0	1
O=c1cc(CSc2ccccn2)c2ccccc2[nH]1
  -1.7	1	0.71	/	3.2	6.8	-7
OC[C@@H]1CC[C@@H](Cc2ccc(-c3ccccc3)cc2)O1
  0.5	/	0.68	i	0.5	/	4
COc1cc(C2CC(=O)Oc3c(C(CCN4CCCC(C)C4)c4ccc(N(C)C)cc4)c(OC)cc(OC)c32)cc(OC)c1OC (stereo unspecified)
  -2.4	/	0.69	i	0.8	-1.4	24
CC(C)OP(=O)(OC(C)C)C(Nc1ccccc1)c1ccccc1C(F)(F)F (stereo unspecified)
  -1.4	19	0.75	i	0.2	-4.4	-1
COc1ccc(CNc2nc(SCc3cc(=O)n4cc(Cl)ccc4n3)nc3ccccc23)cc1
  0.3	-3	0.69	i	-22	-0.5	-6
COC(=O)N1CCN(CCc2ccccc2)CC1
  4.2	-2	0.71	i	0.9	0.5	-3

Random excerpt: six entries already listed
Sequence of screens: HNF4A DNA FP	ALR inh	E coli growth	FGF22 binding	UCH37 DUB inh	LANA-H2A inh	B2AR ag
CC1CCCCN1C/C=C/c1ccccc1[N+](=O)[O-] (stereo unspecified)
  5.0	-6	0.67	/	6.1	5.0	5
O=C(Nc1cccc2ccccc12)c1ccc(OC(=S)N2CCOCC2)cc1
  -3.1	-9	0.71	/	3.2	13	5
OC[C@@H]1CC[C@@H](Cc2ccc(-c3ccccc3)cc2)O1
  0.5	/	0.68	i	0.5	/	4
CC(C)OP(=O)(OC(C)C)C(Nc1ccccc1)c1ccccc1C(F)(F)F (stereo unspecified)
  -1.4	19	0.75	i	0.2	-4.4	-1
Cc1cccc(NC(=O)NCc2cccnc2)c1C
  3.6	-6	0.67	i	0.0	0.7	9
O=C(O)CCc1nc2cc(Cl)ccc2n(Cc2ccccc2)c1=O
  3.2	-25	0.7	i	-31	-4.3	8

Remaining list, next part:
Sequence of screens: HNF4A DNA FP	ALR inh	E coli growth	FGF22 binding	UCH37 DUB inh	LANA-H2A inh	B2AR ag
COc1ccc(/C=C/C(=O)NC(=S)Nc2cc([N+](=O)[O-])ccc2O)cc1OC
  -31	4	0.68	i	1.2	6.6	6
COc1cccc(C(=O)NCC(=O)N/N=C/c2ccc(OC(=O)c3cccs3)c(OC)c2)c1
  -0.5	-8	/	i	/	-1.8	12
CCOC(=O)N1CCC(NC(=O)CSCc2nc(-c3ccc(C)cc3)oc2C)CC1
  -1.0	58	0.69	i	0.6	-1.0	-14
Cc1ccccc1OCC(=O)N/N=C/c1cn(Cc2ccccc2)c2ccccc12
  -0.3	-4	/	/	/	3.9	9
C=CCN1C(=O)/C(=C/c2ccc(OC)cc2)S/C1=N/c1nccs1
  0.6	-7	/	/	/	-7.4	11
C=CCNC(=O)CC(=O)N/N=C/c1cccs1
  1.7	-3	/	i	/	2.2	2
COC(=O)CC1C(=O)NCCN1C(=O)CSc1nc2ccccc2s1 (stereo unspecified)
  -5.2	99*	0.7	i	4.8	1.0	3
CCOc1ccc(C(=O)N2CCSC2=S)cc1
  2.3	-2	0.71	/	5.8	0.4	5
O=C(NC1CCCCC1)c1ccc(OC2CCN(Cc3ccccn3)CC2)cc1
  0.8	1	0.69	/	0.1	-4.5	-9
O=C(COc1ccccc1)N1CCN(C(=O)c2ccccc2F)CC1
  1.1	/	0.67	i	3.4	-1.0	1
COc1ccc(Cl)cc1NC(=O)CN(C)C(=O)c1ccc(OCc2ccccc2)c(OC)c1
  -1.1	-1	0.66	i	3.5	2.3	13
O=C(NC1(C(F)(F)F)C(=O)Nc2c1c(=O)[nH]c(=O)n2Cc1ccccc1)c1ccc(Cl)cc1Cl (stereo unspecified)
  9.9	11	0.65	i	1.7	-0.8	-6
Cc1cccn2c(=O)c3cc(C(=O)NC4CCCC4)n(C)c3nc12
  -1.9	-1	0.69	i	-125	2.1	-18
Cc1ccc2nc(-c3cccc(S(=O)(=O)N4CC(C)OC(C)C4)c3)cn2c1 (stereo unspecified)
  0.3	98*	0.68	i	-8.3	1.2	1
CCc1ccc(-c2nc(SCC(=O)NC3CC3)n[nH]2)cc1
  0.8	-13	0.72	i	4.2	0.3	-4
COc1ccc2nc(SCC(=O)Nc3ccccc3OC)[nH]c2c1
  6.0	-4	0.65	i	0.2	-5.6	3
CCc1cc2ccc(C)cc2nc1SCC(=O)Nc1c[nH]c(=O)[nH]c1=O
  3.6	0	0.67	i	5.4	0.6	-1
COc1cccc(CN(C)C(=O)/C=C/c2ccc(S(=O)(=O)N3CCCCCC3)cc2)c1
  -0.1	-2	0.71	i	0.1	3.6	-10
CC(C)C[C@@H](CNC(=O)OC(C)(C)C)NC(=O)c1nc[nH]c1C(=O)N[C@@H](CC(C)C)C(=O)CNC[C@H](CC(C)C)NC(=O)c1nc[nH]c1C(=O)N[C@@H](Cc1c[nH]c2ccccc12)C(=O)OC(C)(C)C
  -0.4	-3	/	i	-2.3	-0.6	7
Cc1cc(Br)cc(C)c1OCCCCN(C)C
  4.2	93*	0.66	/	5.1	3.9	8
C/C=C\C(=O)Nc1cccc(C2=NOC3(C2)C[C@@H](C(N)=O)N(C(=O)c2ccc(OC)cc2)C3)c1 (stereo partly specified)
  /	-10	/	i	0.8	0.4	/
Cn1c(CC(=O)Nc2ccccc2)c(Sc2ccccc2)c2ccccc21
  -3.2	-1	0.73	/	6.3	-0.4	-4
CC(C)(C)c1ccc(S(=O)(=O)N2CCC(c3nc4ccc(Cl)cc4[nH]3)CC2)cc1
  2.1	-21	0.7	i	3.2	1.2	1
Cc1nc(NCCc2ccccc2)c(C#N)c(C)c1[N+](=O)[O-]
  0.5	-2	0.68	/	5.3	-6.4	1
Nc1c(-c2nn[nH]n2)cnn1-c1cc(Cl)cc(Cl)c1
  -0.7	0	0.69	i	5.8	-2.0	8
Cc1cc(Nc2ncc(Cl)cc2Cl)n(-c2ccccn2)n1
  -3.5	/	0.68	/	0.1	/	0
Cc1cccc(-n2c(=S)[nH]c3c(oc4ccccc43)c2=O)c1
  -0.3	90*	0.65	i	2.3	-1.8	-4
CCC(=O)Nc1ccc2c(c1)OCCO2
  6.2	-10	0.65	/	4.0	-2.4	-3
CC(OC(=O)CCc1nc2ccccc2c(=O)[nH]1)C(=O)NCc1ccc2c(c1)OCO2 (stereo unspecified)
  2.0	-5	0.7	/	0.4	-1.7	-2
CCCCn1c(SCC(=O)N2CC(=O)Nc3ccccc32)nnc1-c1ccoc1C
  0.2	11	0.69	/	4.1	-6.0	-7

The list goes on.
Sequence of screens: HNF4A DNA FP	ALR inh	E coli growth	FGF22 binding	UCH37 DUB inh	LANA-H2A inh	B2AR ag
CNc1ccccc1C(C)(C)c1cn(-c2ccc([N+](=O)[O-])cc2)nn1
  -2.1	-2	0.71	i	2.7	-5.7	-3
NC(=O)N/N=C(/CCCCCC/C(=N\NC(N)=O)c1ccccc1)c1ccccc1
  -0.5	/	/	i	/	4.7	7
CCOC(=O)N1CCC(C(=O)NNC(=O)c2ccc(Cl)cc2Cl)CC1
  2.8	1	0.63	i	0.2	0.1	-7
CCn1c(-c2ccccc2)c(C(=O)CC#N)c2ccccc21
  27	-18	0.7	i	4.9	1.9	1

Look-ups from the entries so far.
CCOC(=O)c1c(C)[nH]c(C)c1C(=O)COc1ncnc2ccccc12 in UCH37 DUB inh reads 4.8
COc1ccc(CNC(=O)c2ccc3c(=O)n(CCCN4CCCC4=O)c(=S)[nH]c3c2)cc1 in UCH37 DUB inh reads 1.6
